Sa growth inh: S. aureus growth inhibition at 42 and 30 °C, primary screen, LtaS inhibitor project, RN4220, two temperatures. OD600, 20 h, 42 °C; stronger effect = lower value. relative growth, % (concentration not given with the values). actives 0.53% (n = 170,000). AID 720641, 2013;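 active = growth at 42 °C up to 50% and 20 or more points under that at 30 °C, or under 10% at both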;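 also: 300 nL library stock went into each well; scaled to the means of positive and negative controls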
GIV Gai3 FP: inhibitors of GIV peptide binding to Galpha-i3, primary screen, biochemical, fluorescence polarization, FITC-GIV GBA peptide, rat Galphai3. 90 min; stronger effect = lower value; scaled: aluminum fluoride 0%, vehicle 100%. percent of control (FP), % (no concentration beside the values). Guanine nucleotide-binding protein G(i) subunit alpha-3 (Rattus norvegicus), P08753. actives 0.42% (n = 210,000);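 active = replicate mean at 85% of control or lower, very high polarization wells dropped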;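 also: wells of about 15 µL received 100 nL stock; the first replicate is given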
Target sequence (P08753 whole entry, looked up): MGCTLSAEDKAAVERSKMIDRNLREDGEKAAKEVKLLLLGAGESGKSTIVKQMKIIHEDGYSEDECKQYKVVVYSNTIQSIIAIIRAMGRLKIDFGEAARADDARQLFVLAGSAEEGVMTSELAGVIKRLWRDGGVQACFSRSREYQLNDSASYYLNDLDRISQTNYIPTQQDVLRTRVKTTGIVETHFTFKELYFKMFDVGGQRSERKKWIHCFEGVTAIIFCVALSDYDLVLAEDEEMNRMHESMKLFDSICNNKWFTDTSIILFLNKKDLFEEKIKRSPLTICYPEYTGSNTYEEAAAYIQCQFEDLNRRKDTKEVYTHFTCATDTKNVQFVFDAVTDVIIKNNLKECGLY
HCMV UL50-53 inh: inhibitors of HCMV UL50-UL53 interaction, biochemical, HTRF; HCMV UL50-UL53 nuclear egress complex (human cytomegalovirus); normalized percent inhibition; inhibition, % (test concentration not listed); actives 0.15% (n = 190,000);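 active = both replicates at 50% or more, plus weaker picks with an unusually low signal ratio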;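 also: stock transfer was 100 nL into about 20 µL; 0% = negative control wells and 100% = wells with untagged competitor protein; inactives centre near -12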
Sa growth inh second temp: recorded beside Sa growth inh, whose call it bears; relative growth, %; measured here: growth at 30 °C;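 optical density after 20 h as mean of two plates; 100% = untreated growth and lower means inhibition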
* hit, by the source's call; / = not tested or not shown.

SMILES	Sa growth inh	Sa growth inh second temp	GIV Gai3 FP	HCMV UL50-53 inh
O=C1N=c2ccc([N+](=O)[O-])cc2=C1c1sc(=S)n(Cc2ccc(Cl)cc2)c1O	/	/	110	-20
CCOc1ccc(-c2noc(N3CCC(C(=O)N4CCCC4)CC3)n2)cc1OC	/	/	99	-5
CCN1C(=S)SC(=O)C1=C1C=C(C)N(Cc2ccco2)C(C)=C1	112	98	/	-10
Cc1cc(C)c(S(=O)(=O)Nc2ccc(N3CCCC3)cc2C(=O)O)c(C)c1	/	/	109	2
COC(=O)c1cc2sccc2n1C(C)C(=O)N(C)c1ccc(F)cc1 (configuration not stated)	133	81	104	/
CCN(CC)c1ccc(C2CC(=O)C3=C(C2)Nc2ccccc2N(C(C)=O)C3c2ccccc2)cc1 (configuration not stated)	/	/	110	15
O=C(Nc1ccccc1Br)C1CCCN(S(=O)(=O)c2cccc3nsnc23)C1 (configuration not stated)	99	86	100	-25
COc1ccccc1N1C(=O)CCC1(C)C(=O)NCc1ccccc1 (configuration not stated)	102	86	102	-28
O=C(NCC(c1ccccc1)c1c[nH]c2ccccc12)c1ccc(Br)cc1 (configuration not stated)	/	/	105	-11
O=C1COc2ccc(-c3csc(=Nc4ccc(F)cc4)n3/N=C/c3ccc(O)c(O)c3)cc2N1	56	43	/	-30
COC(=O)c1sc(C(C)(C)C)cc1CS(=O)(=O)c1ccc(C)cc1	86	66	98	-6
COc1ccc(N2CCOCC2)cc1	121	98	104	-20
COc1ccc(S(=O)(=O)c2c(SC)nn(Cc3ccccc3C)c2NC(C)=O)cc1	113	88	102	/
CCOCC(=O)OCc1ccc(COC(=O)COCC)cc1	95	94	/	-23
CNC(=O)C12CCC(C)(C(=O)C1)C2(C)C (configuration not stated)	93	89	/	-20
Cc1ccc(C(=O)OCC(=O)Nc2ccc(Cl)cn2)cc1S(=O)(=O)N1CCOCC1	97	89	/	13
Cc1ccccc1-c1nc(CS(=O)(=O)CC(=O)NCCN2CCOCC2)c(C)o1	99	86	102	-11
COc1ccccc1N1CCN(c2ccc(=O)n(CC(=O)Nc3cc(F)ccc3C)n2)CC1	94	90	104	/
CC1Oc2ccccc2N(CC(=O)Nc2nnc(Cc3cn(C)c4ccccc34)s2)C1=O (configuration not stated)	/	/	99	-17
CNC(=O)Nc1cccc(-c2cc(-c3c(Cl)cccc3Cl)no2)c1	57	35	103	-18
O=C(CN1CCN(S(=O)(=O)c2ccccc2)CC1)Nc1ccc(N2CCOCC2)cc1	94	96	/	-33
COCCN1C(=O)/C(=C/c2c(N(C)C)nc3ccccn3c2=O)SC1=S	92	88	135	-45
CN1CCc2c(sc3nc(NC(=O)c4ccc(OC(F)(F)F)cc4)sc(=O)c23)C1	117	97	108	4
Cc1cc(C)nc(-n2nc(C)cc2NC(=O)C(C)C)n1	123	93	/	2
O=C(CCN1c2ccccc2Sc2ccccc21)N1CCN(C(=O)c2ccco2)CC1	98	73	/	-19
O=C(Cc1csc(-c2ccccc2)n1)N1CCCC1c1cccs1 (configuration not stated)	124	95	/	-24
CCOc1ccccc1CNC(=O)CCC(=O)N1CC(C)Oc2ccc(Cl)cc21 (configuration not stated)	121	71	101	/
CC1(C)CC(=O)C2=C(C1)OC1=C(C(=O)CC(C)(C)C1)C2c1ccc(OCC(=O)O)cc1	/	/	93	-26
O=C(CN(c1ccc(Cl)c(C(F)(F)F)c1)S(=O)(=O)c1ccccc1)N1CCN(Cc2ccccc2)CC1	/	/	99	-12
O=C1CSc2ccc(C(=O)NCc3ccccn3)cc2N1	94	93	/	-11
CCCCOc1ccc(C2=NC(c3cccs3)=Nc3ccc(CC)cc3N2)cc1	99	86	100	-31
Cc1ccc(N2CCN(S(=O)(=O)N3CCOCC3)CC2)cc1Cl	97	86	98	-4
CC1(C)CC(=O)C2=C(C1)OC1=C(C(=O)CC(C)(C)C1)C2c1cn(Cc2ccc(Cl)cc2Cl)nc1-c1ccccc1	/	/	100	-19
CCCN(CC(=O)Nc1cc(Cl)ccc1Cl)C(=O)CSc1nnc(-c2ccc(OC)cc2)o1	94	92	/	-17
Cc1sc2nc(SCc3nnc(-c4cccs4)o3)n(C3CCCC3)c(=O)c2c1C	80	93	/	-17
O=c1ccn2c(n1)OC1[C@@H](O)[C@@H](CO)O[C@H]12 (some centres not stated)	86	64	102	-10
N#Cc1ccc(CSc2nccc(=O)[nH]2)cc1	94	92	/	-15
O=C(NN1C(=O)C2C3C=CC(C3)C2C1=O)c1ccccc1 (configuration not stated)	114	100	104	-15
COc1cc(OC)cc(-c2nnc(SCCOc3cc(C)ccc3C)o2)c1	83	93	/	18
O=C(c1nn2c(C(F)(F)F)cc(-c3cccs3)nc2c1Br)N1CCCC1	/	/	101	-15
CCc1ccc(NC(=O)CC2C(=O)N(c3cccc(C)c3)C(=O)N2C2CC2)cc1 (configuration not stated)	112	89	104	/
O=C(Nc1ccccc1)N1CCN(c2ccccc2)CC1	98	83	/	-10
CCCN(CCC)C(=O)Cn1c(=O)n(CCCCCC(=O)Nc2ccccc2)c(=O)c2sccc21	101	98	106	-19
N#CC(C(=O)O)C1C(=O)Nc2ccccc21 (configuration not stated)	77	44	/	-46
Cc1occc1C(=O)Nc1ccc(F)c(F)c1	77	76	/	-5
Cc1ccc2nc(-c3ccc(NC(=O)COc4ccccc4C(C)(C)C)cc3)sc2c1	101	103	104	-3
Cc1cc(NC(=O)CSc2nc3ccccc3c(=O)n2Cc2ccco2)no1	124	99	104	0
CC(C)Cc1cc(C(=O)O)n[nH]1	99	95	105	-17
CC(C)NC(=O)CC1(C(=O)O)CCCC1	95	94	/	-33
CC(=O)c1cccc(NC(=O)CCS(=O)(=O)c2ccc3c(c2)n(C)c(=O)c(=O)n3C)c1	101	89	100	-10
O=C(Nc1ccccc1)Nc1ccc2c(c1)nc1n2CCN(Cc2ccccc2)C1	103	96	102	4
CC(NC(=O)c1ccccc1)C1COc2ccccc2O1 (configuration not stated)	98	77	/	-7
O=C1OC2(C(=O)c3ccccc3C2=O)/C(=C(\O)c2ccc(F)cc2)C1=O	87	94	95	/
CCCc1cc(=O)oc2cc(OCc3ccccc3)ccc12	110	80	/	3
CNc1cc(C)nc(-c2csc(C)n2)n1	140	89	99	0
COc1ccc(C2CC(=O)C3=C(C2)Nc2onc(C)c2C3C(C)C)cc1OC (configuration not stated)	/	/	106	-10
CCn1c(CN(c2ccc(F)cc2)S(C)(=O)=O)nnc1SCC(=O)Nc1cc(F)ccc1F	/	/	106	-9
CC(=O)N1N=C(c2c(-c3ccccc3)c3cc(Cl)ccc3[nH]c2=O)CC1c1nc2ccccc2n1C(C)=O (configuration not stated)	/	/	102	-3
Cc1c(C(=O)O)sc2nc(CSc3nnc(-c4ccc(F)cc4)n3C)[nH]c(=O)c12	106	94	/	-22
COc1cc(C(=O)NCc2ccc3c(c2)CCN3C(=O)c2ccc(Cl)cc2)cc(OC)c1OC	125	96	100	/

(next part)
SMILES	Sa growth inh	Sa growth inh second temp	GIV Gai3 FP	HCMV UL50-53 inh
COc1cc(CN2CCN(S(=O)(=O)c3ccc(NC(C)=O)cc3)CC2)cc(OC)c1OC	115	93	107	/
CC(C)(C)S(=O)(=O)c1ccc2ccccc2c1	112	85	/	-19
CCC(=O)Nc1nc2ccccc2s1	90	88	98	2
Cc1cc(C(=O)COC(=O)c2ccccc2NS(=O)(=O)c2ccc3c(c2)OCCO3)c(C)n1C	86	96	/	9
COc1ccc(-n2nc(C(=O)Nc3nc4ccccc4s3)c(=O)n(C)c2=O)cc1	/	/	105	-35
C#CC1(O)CCCCCCCCCCC1	101	89	104	1
COc1ccc(OC)c(C2NC(=O)NC(C)=C2C(=O)Nc2ccc(F)cc2)c1 (configuration not stated)	101	89	102	-20
O=C(Nc1ccccc1C(=O)Nc1nncs1)c1ccccc1	104	86	105	4
Cc1ccc(CN(CC(=O)NC2CCCC2)C(=O)CSc2nnc(COc3ccccc3)o2)cc1	107	91	101	-24
CCCN(C)C(=O)c1cc2ccccc2oc1=O	97	99	106	-30
Cn1cc(NC(=O)NC2CCCCC2)c2ccccc2c1=O	101	101	98	/
CC(=O)C1=C(c2ccc(Br)cc2)N(C(C)=O)n2c(nnc2C2CCCCC2)S1	111	94	101	/
CCOc1cc(CN2CCN(C(=O)CC(C)C)CC2)ccc1OC	87	80	/	-10
O=C1c2ccccc2C(=O)N1c1ccc(OCc2ccccc2)cc1	108	89	100	-6
O=C(NCCc1ccccc1)NCCn1c(CCc2ccccc2)nc2ccccc21	/	/	107	-19
CCOc1ccccc1NC(=O)C(CC(C)C)NS(=O)(=O)c1ccc2c(c1)CCN2C(C)=O (configuration not stated)	111	91	111	-27
COC(=O)c1ccc(CO)nc1	114	108	96	-10
Cc1cc(C)n(C(=O)c2ccc(NC(=O)CC(C)C)cc2)n1	111	84	108	11
CSc1sc(C#N)c2c1/C(=N\O)CCC2	94	94	111	-7
COc1ccc(CC(=O)Nc2cc(-c3cn4cccnc4n3)ccc2C)cc1OC	95	89	104	/

Structures listed so far containing bromine:
SMILES	Sa growth inh	Sa growth inh second temp	GIV Gai3 FP	HCMV UL50-53 inh
O=C(Nc1ccccc1Br)C1CCCN(S(=O)(=O)c2cccc3nsnc23)C1 (configuration not stated)	99	86	100	-25
O=C(NCC(c1ccccc1)c1c[nH]c2ccccc12)c1ccc(Br)cc1 (configuration not stated)	/	/	105	-11
O=C(c1nn2c(C(F)(F)F)cc(-c3cccs3)nc2c1Br)N1CCCC1	/	/	101	-15
CC(=O)C1=C(c2ccc(Br)cc2)N(C(C)=O)n2c(nnc2C2CCCCC2)S1	111	94	101	/

Quoted at random: 7 records from the list.
SMILES	Sa growth inh	Sa growth inh second temp	GIV Gai3 FP	HCMV UL50-53 inh
CC(=O)C1=C(c2ccc(Br)cc2)N(C(C)=O)n2c(nnc2C2CCCCC2)S1	111	94	101	/
Cc1cc(C)n(C(=O)c2ccc(NC(=O)CC(C)C)cc2)n1	111	84	108	11
O=C(Nc1ccccc1C(=O)Nc1nncs1)c1ccccc1	104	86	105	4
CCCN(C)C(=O)c1cc2ccccc2oc1=O	97	99	106	-30
COC(=O)c1ccc(CO)nc1	114	108	96	-10
Cc1ccc(CN(CC(=O)NC2CCCC2)C(=O)CSc2nnc(COc3ccccc3)o2)cc1	107	91	101	-24
CCOc1cc(CN2CCN(C(=O)CC(C)C)CC2)ccc1OC	87	80	/	-10

(listing goes on)
SMILES	Sa growth inh	Sa growth inh second temp	GIV Gai3 FP	HCMV UL50-53 inh
O=C(CSc1ncnc2nc(N3CCSCC3)sc12)N1CCN(c2ccc(F)cc2)CC1	/	/	102	-17
COc1ccc(-c2ccc(CNCc3cccs3)o2)cc1Cl	/	/	104	-16
COc1ccc(NS(=O)(=O)c2cc(Br)cc3c2N(C(=O)C2CC2)CC3)cc1OC	102	90	99	/
CCc1nc2cccnc2n1-c1ccc(CC(=O)NC2CCCC2)cc1	92	95	107	-28
COC(=O)c1ccc(COC(=O)c2cccc(N3C(=O)c4c(C)nc5ccccc5c4C3=O)c2)cc1	/	/	106	3
O=C(NC12CC3CC(CC(C3)C1)C2)n1ncc2cc(Cl)ccc21	123	98	104	/
CCCc1nc2ccccc2n1CC(=O)Nc1ccc(OC)cc1OC	115	81	/	-24
COc1cccc(/C=N/N(C)C2=NS(=O)(=O)c3ccccc32)c1O	92	88	100	-10
Cc1cccc(N/C=C2/CCCCC2=O)c1	103	98	119	-28
Cc1ccc(S(=O)(=O)NC(=O)c2cc(C)n(CCCN3CCOCC3)c2C)cc1	84	95	/	-10
Cc1nc2c(C(=O)N3CCCCC3)c[nH]n2c(=O)c1Cc1ccc(Cl)cc1	85	75	103	-2
Cc1cc(NS(=O)(=O)c2ccc(NC(=O)COc3ccc(Br)cc3C)cc2)no1	67	50	100	-9
N#CC1=C(N)OC(C2CC2)=C(C#N)C1c1ccco1 (configuration not stated)	104	90	179	-23
CCOc1ccc(CNC(=O)CCS(=O)(=O)c2cc3c(cc2Cl)NC(=O)CO3)cc1OC	120	100	106	/
COc1cccc(Oc2nc(C)nc3c2oc2ccccc23)c1	69	65	100	/
CCN1C(=O)/C(=C/c2cn(CC)c3ccccc23)NC1=S	119	87	159	/
O=C(CCc1nc2sc3c(c2c(=O)[nH]1)CCCCC3)NCc1ccccn1	/	/	99	-23
Cc1ccc2c(c1)N(CC(=O)N1CCOCC1)C(=O)CO2	/	/	103	5
O=C(OCC(=O)N1CCc2ccccc21)c1ccccc1O	115	87	/	-14
Oc1c(Cl)cc(Cl)cc1C(O)(C(F)(F)F)C(F)(F)F	7.3*	3.6*	/	12
COc1ccc(OC(=O)c2csc(COc3ccc4nonc4c3)n2)cc1	89	89	105	-26
Cc1cc(C2N=C(N)Nc3nc4ccccc4n32)c(C)n1-c1ccccc1F (configuration not stated)	64	83	/	-12
Cc1ccc2cc3c(nc2c1)N(S(=O)(=O)c1ccc(C(C)C)cc1)CC3	/	/	93	8
CSc1nc2sc3c(c2c(=O)n1-c1ccccc1)CCN(C(C)=O)C3	71	44	107	-17
COc1ccc(F)cc1S(=O)(=O)NCCc1csc(-c2ccc(Cl)cc2)n1	100	69	102	/
COCCNC(=O)CCc1nc(-c2nn(-c3ccccc3)c(=O)n(C)c2=O)no1	/	/	108	-86

Screening data as filed in PubChem BioAssay.
